Vaccinia mCherry: inhibitors of vaccinia virus infection (mCherry reporter signal) | Vaccinia virus mCherry reporter infection, fluorescence; about a quarter of the inactives have no number | Potency, µM (titrated, usually from 36.5 µM), for the others: at the highest dose activity change, negative = inhibition, most hits filed as inhibitors | 0.63% of 310,000 active; active = well fitted inhibition curve with a large enough effect; inconclusive = small, poorly fitted or top-dose-only effect; inactive = no such curve, though single readings can be large or run the other way; tested in A549 cells; also: nearly all actives have a fitted effect of over 35% in size; inactives centre near -10
Vaccinia Venus: vaccinia inhibition (Venus reporter). Vaccinia virus Venus reporter expression, fluorescence. Potency, µM (doses to about 36.5 µM), for the others: at the highest dose activity change, negative = inhibition, most hits filed as inhibitors. 0.46% of 330,000 active. AID 720580; active means well fitted inhibition curve with a large enough effect; inconclusive means small, poorly fitted or top-dose-only effect; inactive means no such curve, though single readings can be large or run the other way; tested in A549 cells; also: nearly all actives have a fitted effect of over 30% in size; inactives centre near -10
An asterisk follows results filed as active; i = inactive; ? = inconclusive; . = no result given; & = joins results of further samples; [ ] = another dose, or the depositor's remark. % is scaled to controls: 0 for no effect and ±100 for the full control effect; potency is read from the fitted curve at half-maximal effect.

Values run as follows: Vaccinia mCherry | Vaccinia Venus
> C=CC1=CCN(S(=O)C(C)(C)C)[C@@H]1CCO (stereo partly drawn)
    i | 1%
> Cc1ccc(OCCNC(=O)CCc2ccccc2)cc1C
    i[7.34 µM] | -16%[7.34 µM]
> Cc1ccc(S(=O)(=O)NC(C)(C)C)cc1C(=O)OC(C)C(=O)NC1CC1 (stereo not drawn)
    -9% | -21%
> COc1ccc(CCN2C(=O)NC(NC(=O)C(C)(C)C)(C(F)(F)F)C2=O)cc1OC (stereo not drawn)
    i | -7%
> O=C(O)c1ccccc1CSc1nnc2c(n1)[nH]c1ccccc12
    -13% | 15%
> Cc1ccc(NS(=O)(=O)c2ccc(NC(=O)CSc3ccc(Cl)cc3)cc2)c(C)c1
    ? | ?
> CN(c1nc(-c2ccc(Br)cc2)cs1)C1CCS(=O)(=O)C1 (stereo not drawn)
    -20% | -10%
> CC(C(=O)NCc1ccccc1)N1C(=O)CN(C)C(=O)c2ccccc21 (stereo not drawn)
    -14% | -10%
> COc1ccc(NC(=O)CN(C)C(=O)Cc2c[nH]c3ccccc23)cc1
    -18% | -16%
> COc1cccc(CC2(CO)CCCN(Cc3cn[nH]c3-c3ccccc3)C2)c1 (stereo not drawn)
    -8% | -19%
> Cn1c(=O)c(-c2ccccc2[N+](=O)[O-])c(Cl)c2ccccc21
    -13% | -25%
> O=C(C1CCC(=O)N1Cc1ccccc1Cl)N1CCN(c2cccc(Cl)c2)CC1 (stereo not drawn)
    ? | ?
> COc1cc(C)c(Br)cc1S(=O)(=O)NCCN1CCOCC1
    -21% | -8%
> O=C(NC1CCCC1)C1C2C=CC3(CN(Cc4cccs4)C(=O)C13)O2 (stereo not drawn)
    -13% | 4%
> COc1cccc(C(=O)NC(=O)Nc2ccc(-n3nc(C(F)(F)F)cc3C(F)(F)F)cc2)c1
    -12% | -5%
> COc1ccc(OCC(=O)Nc2ccc3c(c2)nc(CCN2CCN(c4ccccn4)CC2)n3C)cc1
    i | -27%
> CCOC(=O)NC(=O)CSc1nnc(C2CC2)n1Cc1ccco1
    i | -1%
> CC(=O)Oc1cccc(N2C(=O)c3ccccc3C2=O)c1
    -5% | 1%
> Cc1nn(C)c(C)c1NC(=O)COc1ccc(Cl)cc1Br
    ? | -20%
> COCCNC(=O)C1(C)CCCN(Cc2cccc(OC(=O)c3ccccc3)c2)C1 (stereo not drawn)
    3% | 8%
> Cc1ccc(C2=[N+]([O-])C3(CCCCC/C3=N\O)N(O)C2(C)C)o1 (stereo not drawn)
    . | ?
> CC1CN(C(=S)Nc2ccccc2C(F)(F)F)CC(C)O1 (stereo not drawn)
    -10% | -10%
> Cc1cc(Cl)ccc1-n1c(CCC(=O)O)ccc1-c1cccs1
    1% | 5%
> Cc1cccc(NC(=O)CN2c3ccccc3S(=O)(=O)c3ccccc32)c1C
    -14% | -9%
> Cc1ccc(NC(=S)NN(C)c2cc(C)nc(C)n2)cc1
    -1% | -15%
> COc1ccc(C(=O)NCCc2nnc3ccc(SCC(=O)NCc4ccccc4)nn23)cc1
    -13% | -8%
> COCCN(C(=S)Nc1cccc(OC)c1)C1CCN(C(C)=O)CC1
    -4% | -1%
> CC(C)(C)C(=O)N1Cc2cc(-c3cccc(F)c3)ccc2-n2nncc2C1
    40% | 0%
> COc1ccc(C2C3C(=O)N(N(C)c4ncc(C(F)(F)F)cc4Cl)C(=O)C3ON2C)cc1 (stereo not drawn)
    -14% | -13%
> CC1CCC2(OC1)OC1CC3C4CC[C@@H]5CC(O)CC[C@@]5(C)C4CC(=O)[C@]3(C)C1C2C (stereo partly drawn)
    i | -18%
> COc1cccc(Nc2sc(C(=O)c3ccc(F)cc3)c(N)c2C(=O)NCc2ccc(C)cc2)c1
    -3%[7.34 µM] | -21%[7.34 µM]
> CC(C)C[C@@H](CN=[N+]=[N-])N1CCN(Cc2ccccc2)CCC1=O
    -1% | -1%&1%
> CCOC(=O)c1sc(=NC(=O)c2ccc(S(=O)(=O)N(C)c3ccccc3)cc2)n(C)c1C
    i | -5%
> COc1ccc(C(=O)O/N=C(\C)c2nccs2)cc1
    -2% | -12%
> Cn1cccc1CC(=O)NNC(=S)Nc1ccc(F)cc1
    -2% | -3%
> COc1cc(NC(=O)C2(C)CCCN2C)cc(OC)c1OC (stereo not drawn)
    i | 0%
> Cc1cccc(CN2CCCN(Cc3ccc(Cl)cc3)S2(=O)=O)c1
    -3% | -6%
> CCc1c(C)nc2[nH]nc(-c3ccccc3)n2c1=O
    . | -26%
> O=C(COC(=O)C12CC3CC(CC(O)(C3)C1)C2)NC(=O)NCc1ccco1
    . | -7%
> CCCc1nc2ccccc2c(C(=O)O)c1CC
    -15% | -6%
> NC(=O)c1ccccc1NS(=O)(=O)Cc1ccccc1
    -8% | -9%
> CS(=O)(=O)Nc1ccccc1C(=O)N1CCOCC1
    -14% | -20%
> Cc1c(S(=O)(=O)NCCc2ccccc2)c(=O)n(C)c(=O)n1C
    -3% | -1%
> O=C(c1ccc(-n2cnnn2)cc1)N(C1CCCCC1)C1CCCCC1
    -5% | -1%
> OCCCCO
    i | -10%
> CCOC(=O)c1c(-c2ccc(OC)cc2)oc2ccc(O)cc12
    ? | -25%
> Cc1c(Cl)cccc1NS(=O)(=O)c1ccc2[nH]cc(C(=O)NC3CCCC3)c(=O)c2c1
    1% | 4%
> OCCc1c[nH]c2ccccc12
    -13% | ?
> Cc1ccc(C(=O)NCCN2CCN(C(=O)c3ccc(C)c(C)c3)CC2)cc1C
    -15% | -6%
> CCc1ccc(NC(=S)N2CCN(S(=O)(=O)c3ccccc3)CC2)cc1
    ? | -20%
> Oc1ccc(C[C@@H]2CNCCN2CCc2cccc(F)c2)cc1
    -16% | -6%
> O=C(NCc1ccncc1)c1csc([C@@H]2C[C@H](O)[C@@H](CO)O2)n1
    17% | -7%
> CCOC(=O)CNC(=S)SC
    -20%[7.34 µM] | -2%[7.34 µM]
> O=C(N/N=C/c1cccc(O)c1)c1cc(-c2ccc3c(c2)OCO3)n[nH]1
    i | -12%
> N=C(N)c1ccc(OCCCCCOc2ccc(C(=N)N)cc2)cc1
    ? | -29%&-28%
> CN1CCc2nc3sc(C(=O)Nc4c(F)cccc4F)c(N)c3cc2C1
    -6% | 0%
> COC(=O)C(NC(=O)c1ccco1)(Nc1cc(C)ccn1)C(F)(F)F (stereo not drawn)
    -18% | -12%
> C=CCOc1ccc(C(=O)N(Cc2ccc(N(C)C)cc2)C2CCS(=O)(=O)C2)cc1 (stereo not drawn)
    i | -15%
> CCOc1ccc2nc(NS(=O)(=O)c3cccs3)sc2c1
    -8% | -10%
> O=c1[nH]cncc1OCc1ccccc1
    -21% | -11%

The last 4 records of the part before open the next one.
| Molecule | Vaccinia mCherry | Vaccinia Venus |
| --- | --- | --- |
| COC(=O)C(NC(=O)c1ccco1)(Nc1cc(C)ccn1)C(F)(F)F (stereo not drawn) | -18% | -12% |
| C=CCOc1ccc(C(=O)N(Cc2ccc(N(C)C)cc2)C2CCS(=O)(=O)C2)cc1 (stereo not drawn) | i | -15% |
| CCOc1ccc2nc(NS(=O)(=O)c3cccs3)sc2c1 | -8% | -10% |
| O=c1[nH]cncc1OCc1ccccc1 | -21% | -11% |
| CC(C)(C)c1cc[n+](-c2[nH]c(=O)sc2/C=N/NC(=O)c2ccccc2[O-])cc1 | -11% | -4% |
| CCN(CC)S(=O)(=O)c1ccc(C(=O)Nc2nnc(NC(=S)Nc3ccccc3)s2)cc1 | i | -18% |
| c1ccc(-c2cc3ccccc3cn2)cc1 | -10% | -12% |
| O=C1OCCN1C(=O)[C@H]1[C@H](c2ccccc2)C(c2ccccc2)=NN1c1ccc(Br)cc1 | -17% | -12% |
| CCc1nnc(NC(=O)CSc2nc3cc(OC)ccc3cc2C)s1 | 4% | 3% |
| CCOC(=O)CNC(=O)CSc1nnc(NC(=O)c2ccc(C)cc2)s1 | -16% | -2% |
| O=C(N/N=C/c1ccccn1)c1ccc2nc[nH]c2c1 | -26%[7.34 µM] | 5%[7.34 µM] |
| CC(C)CCN1CCN(Cc2cnc(N3CCCC3)s2)CC1CCO (stereo not drawn) | i | 0% |
| Cc1cccc(C(=O)N(Cc2nc(-c3ccc(Cl)cc3)no2)C(C)C)c1 | -8% | -1% |
| CC(=O)c1cn(C)c(=O)[nH]c1=O | -1% | 4% |
| COc1cccc(NC(=O)CN(C)C(=O)c2cc(-c3ccccc3)nc3ccccc23)c1 | ? | ? |
| Cc1ccc(NC(=O)COC(=O)CCC2CCCC2)cc1S(=O)(=O)N1CCOCC1 | -4% | -3% |
| CCCCNC(=O)c1ccc(-c2nc(CN3CCc4ccccc43)c(C)o2)cc1 | -10% | -8% |
| CN(C1CCCCC1)S(=O)(=O)c1cc2c(cc1Cl)NC(=O)CO2 | -24% | -2% |
| Cc1nc(N2CCN(Cc3ccccc3)CC2)nc2c1C(=O)CCC2 | -28% | -15% |
| COc1ccccc1NC(=O)CN1CCN(CC(=O)Nc2ccc(C)c(F)c2)CC1 | -7% | -17% |
| CSc1ncccc1C(=O)OCC(=O)NCc1ccccc1 | -2% | -9% |
| O=C(c1cc(COc2ccc(F)cc2Cl)on1)N1CC[C@@H]2CCCC[C@H]2C1 | i | -8% |
| COc1ccccc1CNc1ncnc2sccc12 | i | -6% |
| CCCCn1c(NCc2cc(Br)ccc2O)nc2ccccc21 | -20% | 0% |
| COc1cc(/C=N/n2c(-c3cc(C)[nH]n3)n[nH]c2=S)ccc1O | -1% | -3% |
| CCn1c(CCC(=O)O)nc2cc(S(=O)(=O)N3CCOCC3)ccc21 | i | -5% |
| Cc1cc(C)c(S(=O)(=O)NCc2cn3c(C)csc3n2)c(C)c1 | -3% | -25% |
| c1ccc(CCNc2ccccn2)nc1 | -14% | -6% |
| CCOc1ccc(OCC)c(NS(=O)(=O)c2ccc3c(c2)CCCN3C(C)=O)c1 | -7% | -8% |
| CCOC(=O)c1cc(-c2ccccc2)sc1NC(=O)C(C)N1C(=O)c2ccccc2C1=O (stereo not drawn) | ? | -7% |
| COc1ccccc1NCc1nnc(-c2ccccc2)o1 | -3% | -6% |
| CC1Sc2ccccc2N(Cc2ccccc2)C1=O (stereo not drawn) | -3% | 1% |
| CNc1c(Br)cc(C=O)cc1Br | -14% | -9% |
| CCc1ccc(C(=O)COC(=O)C(Cc2c[nH]c3ccccc23)NC(=O)c2ccc(Br)cc2)cc1 (stereo not drawn) | 0% | -12% |
| CC(C(=O)N1CCC2(CC1)OCCO2)C1Sc2ccccc2NC1=O (stereo not drawn) | . | -16% |
| Cc1sc2nc3ccc(NCc4ccco4)nn3c(=O)c2c1C | . | -29% |
| CCS(=O)(=O)N1CCN(C(=O)c2ccc3nc(C)c(N(C)C(=O)CCc4ccccc4)n3c2)CC1 | i | -7% |
| O=C(Nc1ccc(S(=O)(=O)Nc2nccs2)cc1)c1cc(-c2ccccc2)nc2ccccc12 | -12% | -3% |
| O=[N+]([O-])c1cccc(-c2nnc(-c3ccccc3)o2)c1 | -7% | 0% |
| O=c1n(Cc2ccc(F)cc2Cl)c2ccccc2c2nc(-c3ccccc3)nn12 | -8% | -16% |
| Cc1cc(C)c2c(n1)nn1c(C)c(CCC(=O)Nc3ccc(C)c(Cl)c3)c(C)nc21 | -19% | ? |
| C/C(=N\NC(=O)c1cc(-c2ccc(C)s2)nc2ccccc12)c1cccnc1 | ? | -9% |
| CC(=O)c1cccc(N(C(=O)c2ccco2)C(C(=O)NC2CCCC2)c2ccncc2)c1 (stereo not drawn) | -12% | 3% |
| COc1cc([N+](=O)[O-])ccc1NC(=O)CN1CCCC1 | 10% | 1% |
| COc1cccc(C(NC(C)=O)c2nc(-c3cccc(NC(C)=O)c3)cs2)c1 (stereo not drawn) | i | -16% |
| COc1ccc(C(=O)CCC(=O)Nc2cccnc2)cc1OC | 9% | 2% |
| CS(=O)(=O)N1c2cccc3cccc(c23)S1(=O)=O | -5% | -4% |
| Cc1nn(C2CCS(=O)(=O)C2)c(Cl)c1/C=C/C(=O)OCC(N)=O (stereo not drawn) | -6%[7.34 µM] | 1%[7.34 µM] |
| COc1ccccc1-c1cc(NC=O)c2ncc(-c3cccc(C(F)(F)F)c3)n2c1 | -19% | -25% |
| O=S(=O)(O)c1cc(O)ccc1O | -11% | -7% |
| COc1ccc(CCNC(=O)CCCn2c(=O)c3cccn3c3ccc(F)cc32)cc1OC | -6% | -8% |
| COC(=O)C1(C(=O)OC)C(C(=O)c2ccccc2)C1c1ccccc1 (stereo not drawn) | -20% | -9% |
| COc1ccc(NC(=O)c2cccc(Cl)c2)c[n+]1[O-] | -8% | -4% |
| O=C(Nc1ccc2c(c1)N(C1CCCC1)C(=O)c1ccccc1S2)c1ccc(F)cc1 | 0% | -9% |
| C(=NN1CCCCCC1)c1ccccc1 | -15% | 0% |
| COc1ccc(N=c2nc(-c3ccccc3)n(-c3ccc(C)cc3)s2)cc1 | 11µM* | ? |
| Cc1c(S(=O)(=O)N2CCCC(C(=O)O)C2)cnn1C (stereo not drawn) | i | -3% |

Three records drawn at random from those above:
| Molecule | Vaccinia mCherry | Vaccinia Venus |
| --- | --- | --- |
| O=C(c1ccc(-n2cnnn2)cc1)N(C1CCCCC1)C1CCCCC1 | -5% | -1% |
| C(=NN1CCCCCC1)c1ccccc1 | -15% | 0% |
| CCN(CC)S(=O)(=O)c1ccc(C(=O)Nc2nnc(NC(=S)Nc3ccccc3)s2)cc1 | i | -18% |

Compound activity deposited in PubChem BioAssay by National Center for Advancing Translational Sciences (NCATS).
